Source: PubChem
Six1-Eya2 inh – Six1/Eya2 interaction inhibition. AlphaScreen GST-Six1/His-Eya2 binding, biochemical; stronger effect = lower value; control for the full effect not named in the record. 360,000 tested, 0.56% active. activity change, % (test concentration not listed); in the data active = activity change below about -65%; inconclusive = about -30% to -65%; inactive = above about -30%; also: % is scaled to controls: 0 for no effect and ±100 for the full control effect; compound concentration not given in the record
Target sequence (O00167 whole entry, looked up): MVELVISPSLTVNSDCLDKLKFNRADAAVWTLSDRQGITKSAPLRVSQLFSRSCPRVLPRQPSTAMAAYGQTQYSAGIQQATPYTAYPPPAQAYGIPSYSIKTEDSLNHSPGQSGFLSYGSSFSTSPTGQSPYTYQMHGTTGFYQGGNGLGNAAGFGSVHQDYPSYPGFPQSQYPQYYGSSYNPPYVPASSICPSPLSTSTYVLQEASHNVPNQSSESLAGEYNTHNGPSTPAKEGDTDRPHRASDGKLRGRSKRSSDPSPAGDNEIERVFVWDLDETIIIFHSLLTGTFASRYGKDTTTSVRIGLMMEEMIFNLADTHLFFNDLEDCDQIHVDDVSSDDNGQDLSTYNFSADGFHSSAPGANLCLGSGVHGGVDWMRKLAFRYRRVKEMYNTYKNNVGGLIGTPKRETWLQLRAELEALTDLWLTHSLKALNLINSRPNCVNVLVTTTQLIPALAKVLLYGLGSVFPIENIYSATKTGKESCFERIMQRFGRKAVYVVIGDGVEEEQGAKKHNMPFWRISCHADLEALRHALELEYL
Target sequence (Q15475 whole entry, looked up): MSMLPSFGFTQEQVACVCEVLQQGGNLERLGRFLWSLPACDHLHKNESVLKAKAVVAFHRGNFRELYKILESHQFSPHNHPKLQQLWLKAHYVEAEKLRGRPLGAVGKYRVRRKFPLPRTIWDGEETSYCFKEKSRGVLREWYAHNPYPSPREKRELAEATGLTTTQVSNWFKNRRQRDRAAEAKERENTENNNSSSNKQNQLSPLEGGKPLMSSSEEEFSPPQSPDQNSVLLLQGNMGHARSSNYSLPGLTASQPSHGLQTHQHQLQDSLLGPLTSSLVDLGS
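AlphaScreen with GST-Six1 and His-Eya2 (5X mix: 250 nM and 500 nM), glutathione donor and nickel acceptor beads; buffer 50 mM Tris pH 8.0, 300 mM NaCl, 1 mM TCEP; 1 h at 37 C in the dark.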
gsp antagonist – gsp mutant antagonism | AID 624288 | Potency, µM (doses to about 76.9 µM), for the others: top-dose activity change, negative = inhibition, hits mostly inhibitors | 340,000 tested, 0.4% active | gsp-mutant cells, cAMP HTRF, 30 min; control for the full effect not named in the record; active = falling curve of any shape with a large fitted effect; inconclusive = falling curve, mostly with a smaller effect; inactive = flat or rising curve; cell line not stated here;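 also: intracellular cAMP measured with PDE inhibitor Ro 20-1724 present during compound exposure; potency is read from the fitted curve at half-maximal effect; % is scaled to controls: 0 for no effect and ±100 for the full control effect; nearly all actives have a fitted effect of over 65% in size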
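Cells in G418 medium, seeded 16-24 h, 37C; buffer exchange to DPBS + 1 mM CaCl2, 0.5 mM MgCl2, 0.05% BSA; cpds in DMSO + […] (300 uM stock), 30 min 37C; HTRF cAMP detection.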
D2 potentiator – potentiates the human D2 dopamine receptor allosterically; P14416; DiscoveRx D2 beta-arrestin cells, luminescence, 90 min; 100% = 57 uM dopamine signal; potentiation, % (test concentration not listed); 360,000 tested, 0.23% active; AID 624464; active = potentiation of 50% or more; inconclusive = 30% to 50%; inactive = 30% or less;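 also: compound concentration not given in the record; tested on top of an EC20 dose of dopamine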
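PathHunter D2 cells, attached overnight at 37 deg C, received compound in DMSO plus dopamine at EC20 (50 nM final) for 90 min at 37 deg C. Beta-arrestin recruitment was read as luminescence after 1 h with detection reagent at ambient temperature.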
D2 ag – activates the human D2 dopamine receptor; AID 624465; activation, % (no concentration beside the values); 360,000 tested, 0.084% active; DiscoveRx PathHunter D2 beta-arrestin, luminescence, 90 min; 100% = 57 uM dopamine signal; P14416; in the data active = activation above about 40%; inconclusive = about 15% to 40%; inactive = below about 15%; also: compound concentration not given in the record; the text of the record calls up to 30% inactive
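DiscoveRx PathHunter D2 beta-arrestin cells (2,100/well) attached overnight, then compound-stimulated 90 min at 37 C in HBSS/10 mM HEPES/0.1% Tween-20 buffer; beta-galactosidase complementation read by luminescence after 1 h at ambient temperature. Dopamine 57 uM final (EC100) as control.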
CtBP-E1A inh – blocks the CtBP interaction with E1A; AlphaScreen GST-E1A/His-CtBP binding, 1536-well; stronger effect = lower value; control for the full effect not named in the record; 340,000 tested, 0.49% active; activity change, % (no concentration beside the values); in the data active means activity change below about -65%; inconclusive means about -30% to -65%; inactive means above about -30%; also: % is scaled to controls: 0 for no effect and ±100 for the full control effect; compound concentration not given in the record
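Protein mix (5X: 125 nM each GST-E1A, His-CtBP) was incubated with pinned compound 2 h at 37 deg C in dark, in 50 mM Tris pH 8.0 buffer with 300 mM NaCl. Glutathione donor and nickel acceptor beads followed; AlphaScreen signal read after 1 h.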
gsp ag – agonists of gsp mutant (McCune-Albright syndrome); AID 624287; 340,000 tested, 0.13% active; gsp mutant cells, cAMP HTRF, 30 min; control for the full effect not named in the record; Potency, µM (titrated, usually from 76.9 µM), for the others: top-dose activation (cAMP increase), most hits filed as activators; active = well fitted activation curve with a large enough effect; inconclusive = small, poorly fitted or top-dose-only effect, or another doubt; inactive = no such curve, though single readings can be large or run the other way; cell line not stated here;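 also: phosphodiesterase inhibitor Ro 20-1724 added with compounds to block cAMP breakdown; potency is read from the fitted curve at half-maximal effect; nearly all actives have a fitted effect of over 60% in size; about a fifth of the inactives were tested at one dose only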
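Cells in DMEM/10% FBS with G418 were pretreated with compounds in DMSO plus […] (300 uM stock) for 30 min at 37C. cAMP was measured by HTRF (cAMP-d2 plus anti-cAMP antibody-K) after 30 min at room temperature.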
Active calls of the source: *; ? = inconclusive; nt = no result given; [ ] = dose if it differs, or a comment.

Below each SMILES: CtBP-E1A inh | D2 ag | gsp ag | D2 potentiator | gsp antagonist | Six1-Eya2 inh
[1] CC(=O)N1CCN(C(=O)CCc2cc(C(C)(C)C)c(O)c(C(C)(C)C)c2)CC1
    -1 | -2.1 | -10%[15.4 µM] | -27 | 8% | 8
[2] CC1CCCCC1NC(=O)C1CCC(CNc2c(N3CCCCC3)c(=O)c2=O)CC1 (configuration not stated)
    3 | -0.8 | 13%[15.4 µM] | 0 | 7% | 6
[3] COc1ccc(NC(=O)CN2C(=O)CSc3ccc(S(=O)(=O)N4CCC(C)CC4)cc32)cc1
    1 | -1.7 | ? | 1 | -18% | 2
[4] CC(=O)c1ccc(S(=O)(=O)N2CCN(S(=O)(=O)c3ccccc3C(F)(F)F)CC2)cc1
    0 | -7.0 | -2% | -10 | 2% | 2
[5] O=C(COc1ccc(S(=O)(=O)N2CCCC2)cc1Cl)N1CCN(c2ccccc2)CC1
    -8 | -0.8 | -10% | -3 | -3% | -3
[6] COC(=O)CNc1c(-c2ccccc2)nc2ccc(Br)cn12
    21 | -3.0 | 9% | -9 | -35% | 12
[7] COc1cccc(N2CCN(Cc3nc4ccccc4c(=O)[nH]3)CC2)c1
    -13 | -1.7 | 3% | 4 | -4% | 3
[8] Cc1ccc(Nc2nc(N)c([N+](=O)[O-])c(NCc3ccco3)n2)cc1
    7 | -7.3 | 4%[15.4 µM] | -9 | 6% | -15
[9] CCCCCCCCCCCC(=O)NC1CCS(=O)(=O)C1 (configuration not stated)
    4 | 0.0 | 10%[15.4 µM] | 14 | -10% | 3
[10] O=C(NCc1cccnc1)c1ccccc1NC(=O)c1c(F)cccc1F
    -1 | -8.6 | 8% | -8 | 12% | 2
[11] Cc1ccccc1NC(=O)CNc1ccccc1N1CCCCC1
    -12 | -0.5 | ? | -4 | -1% | -22
[12] Cc1cc(=O)n2c(C(=O)Nc3ccc(C(=O)OC(C)C)cc3)c(C(=O)Nc3ccccc3)sc2n1
    nt | -3.4 | 6% | -7 | -15% | 0
[13] COc1ccc(CN(C(=O)c2snc(C(N)=O)c2N)C(C(=O)NC2CCCC2)c2ccco2)cc1 (configuration not stated)
    -5 | -2.7 | 23%[15.4 µM] | -8 | ? | -21
[14] Nc1nc(=S)c2ncn(C3OC(CO)C(O)C3O)c2[nH]1 (configuration not stated)
    ? | -1.2 | -7%[15.4 µM] | -6 | 2% | ?
[15] N/C(CCS(=O)(=O)c1ccc(Cl)cc1)=N\OC(=O)c1ccccc1Cl
    4 | ? | 8%[15.4 µM] | 21 | 2% | 13
[16] COc1ccc(-n2c(SCC(=O)O)nc3sc4c(c3c2=O)CCC4)cc1
    -13 | 0.7 | 3%[15.4 µM] | -2 | -9% | -1
[17] O=C(N/N=C/c1cccc(O)c1)NC1CCCCC1
    15 | -2.1 | 13%[15.4 µM] | -5 | -7% | 1
[18] COc1cccc(NC(=O)Cn2cc(C=O)c3ccccc32)c1
    1 | 0.9 | -1%[15.4 µM] | -8 | -13% | -7
[19] CCOC(=O)c1c(C)[nH]c(C)c1C(=O)COC(=O)c1cccnc1SC
    -25 | -1.4 | -15% | 0 | -1% | -6
[20] CC1CCC(NC(=O)COC(=O)c2ccc3ncsc3c2)CC1 (configuration not stated)
    -14 | -1.8 | 15% | -1 | -12% | -2
[21] COc1ccc(C(=O)N/C(=C\c2cn(C)c3ccccc23)C(=O)OCCN(C)C)cc1
    3 | -4.7 | 4%[15.4 µM] | -16 | -5% | 0
[22] O=C(Cc1ccccc1)NCC1OCCc2ccccc21 (configuration not stated)
    4 | -5.5 | 17%[15.4 µM] | -3 | 3% | 4
[23] CC(C)CNC(=O)NC1C(NC(=O)NCC(C)C)N(C)C(=O)N1C (configuration not stated)
    5 | -4.0 | -4% | -10 | 6% | 12
[24] C[n+]1cccc(CNC(=O)/C=N/O)c1
    5 | 0.2 | -9% | 1 | 3% | 2
[25] COc1cccc(C2C(C#N)=C(N)Oc3cc(C)n(Cc4ccco4)c(=O)c32)c1 (configuration not stated)
    7 | -1.5 | -40%[inhibitor] | -1 | -6% | -7
[26] CC1CCc2sc(C(=O)N(C)CC(=O)Nc3ccc(N4CCOCC4)cc3)cc2C1 (configuration not stated)
    -5 | -0.1 | -9% | -9 | -18% | -14
[27] COc1ccc(CNC(=O)c2[nH]c(C)c(C(C)=O)c2C)cc1
    -2 | -3.7 | 0% | -13 | -2% | 7
[28] Cc1ccc(-c2nnc(Oc3cccc(C)c3)c3ccccc23)cc1
    -9 | -6.6 | -7%[15.4 µM] | -5 | 5% | 3
[29] O=C(NCCN1Cc2ccccc2C1=O)c1cccs1
    -8 | -1.5 | -1% | 7 | 4% | 9
[30] CCOC(=O)c1sc(NC(=O)c2ccc(C)o2)nc1C
    0 | -2.4 | -3% | -13 | -18% | -1
[31] O=C(O)c1ccccc1Nc1cccc(OCc2ccc3ccccc3n2)c1
    4 | -4.4 | nt | 8 | -27% | 2
[32] Cc1nnc(N(C)C(=O)c2cnccn2)s1
    -8 | -3.2 | -1% | -36 | 3% | -7
[33] Cc1ccccc1C(=O)c1cccn1CC(=O)NCCCc1ccccc1
    -15 | -0.1 | -14% | -9 | -5% | -4
[34] CCOC(=O)C1CCN(C(=O)c2ccc3c(c2)OCCO3)CC1
    nt | -2.8 | -16% | -4 | -4% | 1
[35] COc1ccccc1CNC(=O)c1ccccc1SCC(=O)NCc1ccco1
    -9 | -4.5 | ? | 3 | 1% | 0
[36] CCN1CCN(S(=O)(=O)c2c(C)[nH]c(C)c2C(=O)N2CCCCC2)CC1
    2 | 1.0 | 1% | -10 | 9% | 0
[37] CC(NC(=O)c1cccnc1)C(c1cccs1)N1CCN(c2ccccc2F)CC1 (configuration not stated)
    15 | -2.2 | -9%[15.4 µM] | 4 | 1% | -6
[38] Cc1ccc(S(=O)(=O)n2ccc(OC(=O)c3cccs3)n2)cc1
    2 | -3.5 | 26% | -9 | 6% | -19
[39] CC(C)Nc1cc(N2CCCC2)ccc1[N+](=O)[O-]
    -5 | -3.2 | -32%[inhibitor] | -6 | -9% | -14
[40] CCc1cccc2c1NC(=O)C21N2CCCC2C(C(=O)c2ccc3ccccc3c2)C12C(=O)Nc1ccccc12 (configuration not stated)
    -4 | -1.4 | ? | -1 | 13% | -14
[41] COc1cc(/C=C2\SC(=S)N(NC(=O)c3ccc(O)c(OC)c3)C2=O)ccc1O
    ? | -8.7 | 19% | -15 | ? | -6
[42] COc1ccc2oc(=O)c(C(=O)NCCc3ccc(OC)c(OC)c3)cc2c1
    0 | 6.5 | -40%[inhibitor] | -2 | 0% | 4
[43] O=C(CCl)Nc1ccc(S(=O)(=O)NC2=NCCCCC2)cc1
    1 | -4.8 | ? | -16 | 5% | -1
[44] COc1ccc(OCC(=O)N/N=C/c2cccc3cccnc23)cc1
    -86* | -1.1 | -21% | 5 | -7% | -80*
[45] O=C(COc1ncnc2ccccc12)NC1CCCCC1
    -11 | -4.0 | 40% | -4 | 12% | 4
[46] Cc1cc(N(C)C)c(C#N)c(N2CCOCC2)n1
    -1 | 3.4 | 24% | -12 | 9% | 11
[47] CCOC(=O)c1ccc(-n2c(=S)sc3c(=O)[nH]c(C)nc32)cc1
    -9 | -1.4 | 3% | 6 | ? | -1
[48] CCN(CC)S(=O)(=O)c1cc(NC(=O)CSCc2c(C)noc2C)ccc1C
    3 | -2.2 | 12% | -6 | -1% | -6
[49] CN(C(=O)c1ccc(NC(=O)Cc2cccc(NC(=O)C3CCN(C(=O)C4CC4)CC3)c2)cc1)C1CC1
    4 | 0.8 | nt | nt | 8% | 3
[50] O=C(CCS(=O)(=O)c1ccc(Br)s1)N1CCc2ccccc21
    10 | -1.3 | -38%[inhibitor] | -3 | -4% | 2
[51] CCC/C(O)=C1\C(=O)CC(C)(C)CC1=NCc1ccccc1
    3 | -2.6 | 2% | -3 | ? | 31
[52] COc1ccc(N2C(=O)c3cccc4cccc(c34)C2=O)cc1
    7 | 5.2 | -1%[15.4 µM] | 3 | -10% | 0
[53] Cc1nn(C)c(C(=O)N/N=C/c2cccc(Oc3ccccc3)c2)c1Br
    5 | 5.3 | -8%[15.4 µM] | -6 | -4% | -21
[54] Nc1cnn(C2CCCO2)c(=O)n1 (configuration not stated)
    7 | -2.8 | -32%[inhibitor] | -3 | 3% | 4
[55] CC(C)(C)OC(=O)[C@H](NC(=O)OCc1ccccc1)c1ccccc1
    0 | -3.0 | ? | -5 | -6% | 27
[56] O=C1C[C@@H]2CCN3C(=O)CCC[C@@H]([C@H]23)[C@@H]1Cc1ccccc1
    1 | -0.2 | nt | nt | 8% | -1
[57] COc1cc2c(C(=O)N3CCN(c4ccccc4)CC3)c(C)oc2cc1Br
    4 | -1.0 | 0% | -7 | -16% | -3
[58] COC(=O)c1[nH]c2ccc(F)cc2c1NC(=O)Nc1ccc(OC)cc1
    -26 | -2.9 | -2% | -21 | -8% | -6
[59] CN(C)CCSc1nc(N)c2c3c(sc2n1)CN(C)CC3
    -21 | -1.4 | 12% | -5 | -7% | -18
[60] COc1cccc(OC)c1OCC(C)CNCC1CCCO1 (configuration not stated)
    -4 | -0.9 | -27% | -25 | 2% | -12

Next compounds
Below each SMILES: CtBP-E1A inh | D2 ag | gsp ag | D2 potentiator | gsp antagonist | Six1-Eya2 inh
[61] CO/N=C/c1ccc(N2CCOCC2)c([N+](=O)[O-])c1
    -5 | -1.1 | 8%[15.4 µM] | -6 | 4% | -4
[62] CN1CCN(S(=O)(=O)c2ccc(N3CCc4ccccc4C3)nc2)CC1
    -1 | -0.3 | -2%[15.4 µM] | -3 | 14% | 11
[63] CNC(=O)CSc1nnc(-c2cnccn2)n1C
    nt | -5.0 | -16% | -1 | -1% | -5
[64] C=CC[C@H](CC(=O)N(CCO)Cc1ccccc1)C(=O)N[C@@H](C)COC(=O)[C@H](CC=C)CC(=O)OC(C)(C)C
    6 | 1.1 | nt | -2 | -15% | 8
[65] Cn1c(SCC(=O)NCCC2=CCCCC2)nnc1C(F)(F)F
    -12 | 0.0 | -14% | -15 | nt | 7
[66] COC(=O)C1C2C=CC(C3CC23)C1C(=O)OCC(=O)c1ccc(OC)cc1 (configuration not stated)
    -5 | -0.2 | 5% | -13 | ? | 5
[67] CN1CCCN(Cc2nc(-c3cccc(C(F)(F)F)c3)no2)CC1
    27 | -1.8 | ? | -2 | 4% | 11
[68] Cc1ccc(Cn2nnc3c(=O)[nH]c(C4CCN(S(=O)(=O)/C=C/c5ccccc5)CC4)nc32)cc1
    -9 | -4.1 | -1%[15.4 µM] | -5 | -16% | -1
[69] Cc1cc2c(c(=O)n1C1CC1)C(c1cccc(Cl)c1)C(C#N)=C(N)O2 (configuration not stated)
    -2 | 0.5 | -1% | 11 | -6% | -1
